HPGD block: inhibitors of human 15-hydroxyprostaglandin dehydrogenase (HPGD). Potency, µM, inactives show top-dose activity change, negative = inhibition, hits mostly inhibitors. purified HPGD, NADH fluorescence kinetic, PGE2 substrate. 150,000 compounds, 4.3% hits. P15428. AID 894; active = well fitted inhibition curve with a large enough effect (not every such curve was filed as active); inconclusive = small, poorly fitted or top-dose-only effect, or another doubt; inactive = no such curve, though single readings can be large or run the other way;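 also: top concentration of the series not given in the record; plate controls included wells without enzyme; inactives centre near -10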
Target sequence (P15428 whole entry, looked up): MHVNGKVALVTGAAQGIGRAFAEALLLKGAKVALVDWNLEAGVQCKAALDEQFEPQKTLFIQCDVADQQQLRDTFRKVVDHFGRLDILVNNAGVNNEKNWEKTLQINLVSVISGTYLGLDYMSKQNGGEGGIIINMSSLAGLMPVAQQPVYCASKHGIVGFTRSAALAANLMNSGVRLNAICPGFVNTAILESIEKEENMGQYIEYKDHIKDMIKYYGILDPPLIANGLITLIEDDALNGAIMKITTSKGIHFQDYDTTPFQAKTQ
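NADH formation kinetics: reaction with 30 uM PGE2 and 1 mM NAD+ (final), 20 nM enzyme, Tris-HCl pH 8 with Tween 20, after 15 min compound preincubation at room temperature. Fluorescence change, last versus first of five reads.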
* hit, by the source's call; u = inconclusive; & = joins results of further samples; [ ] = another dose, or the depositor's remark. % is scaled to controls: 0 for no effect and ±100 for the full control effect; potency is read from the fitted curve at half-maximal effect. Only part of the results is shown; rates above refer to the full screens.

SMILES	HPGD block
Cc1ccc2nc(C)c(C(=O)N/N=C/c3cccs3)n2c1	-11.5%
N[C@](CC1c2ccccc2Oc2ccccc21)(C(=O)O)[C@@H]1C[C@@H]1C(=O)O	-15.4%
Nc1nc(CN2CCCCC2)cs1	1.9%
Nc1nnc(SC2CCCC2)s1	-2.4%
FC(F)(F)C1=CC(c2ccc(Br)cc2)=NCCN1	-4.2%
COc1ccc(NC(=O)C2CC(=O)NC(Nc3cccc(C)c3)=N2)cc1 (stereo unspecified)	-3.2%
CN(C)c1ccc(C2(O)C(=O)c3ccccc3C2=O)cc1	-7.2%
COc1ccc(S(=O)(=O)N(C)CC(=O)N2CCOCC2)cc1	5.7%
CCOc1cc(C)c(Cl)cc1S(=O)(=O)n1cnc2ccccc21	-0.5%
CS(=O)(=O)N1CCc2cc(-c3csc(NC(=O)C(c4ccccc4)c4ccccc4)n3)ccc21	-10.2%
Cc1ccsc1CN1CCC(C(=O)NCc2ccccc2Cl)CC1	-4.2%
Cc1cccc2c3nc4ccccc4nc3n(CCCN3C(=O)c4ccccc4C3=O)c12	-20.1%
CCN=C1SC(CC(=O)NCCc2ccc(OC)c(OC)c2)C(=O)N1CC (stereo unspecified)	-4.5%
N[C@H](CCC(=O)NCC(=O)O)C(=O)O	-4.7%
CCOC(=O)c1cnc(-n2nc(C)cc2C)nc1NC	u
CCCC(=O)OCCn1c(Br)nc2c1c(=O)[nH]c(=O)n2C	-11.7%
O=C(CSc1nc2ccccc2[nH]1)Nc1ccccc1N1CCOCC1	-2.5%
O=C(NCc1cccnc1)Nc1ccccc1F	4.1%
CC(C)NC(=O)COC(=O)c1ccc(O)cc1	-5.8%
CCOCc1nnc(NC(=O)CSc2ccc(C)cc2)s1	-3.0%

Gathered by group: the entries above with four or more nitrogen atoms
SMILES	HPGD block
Cc1ccc2nc(C)c(C(=O)N/N=C/c3cccs3)n2c1	-11.5%
COc1ccc(NC(=O)C2CC(=O)NC(Nc3cccc(C)c3)=N2)cc1 (stereo unspecified)	-3.2%
Cc1cccc2c3nc4ccccc4nc3n(CCCN3C(=O)c4ccccc4C3=O)c12	-20.1%
CCOC(=O)c1cnc(-n2nc(C)cc2C)nc1NC	u
CCCC(=O)OCCn1c(Br)nc2c1c(=O)[nH]c(=O)n2C	-11.7%
O=C(CSc1nc2ccccc2[nH]1)Nc1ccccc1N1CCOCC1	-2.5%

The results go on:
SMILES	HPGD block
COC(=O)CC1=NN(c2ccc(OC)cc2)C(=O)/C1=C\c1ccc(Cl)cc1	25.1µM*
O=C(NCCN1Cc2ccccc2C1=O)c1cccs1	-2.3%
O=C(Cc1c[nH]c2ccccc12)NCc1cccs1	-8.9%
CCOC(=O)C1=C(Cc2ccc(Cl)cc2)C(=O)c2ccccc2C1=O	3.55µM*
C=CCSC1=C(C#N)C(c2cc(Br)c(O)c(OC)c2)CC(=O)N1 (stereo unspecified)	17.8µM*
O=C(c1ccco1)N1CCN(S(=O)(=O)c2ccc3c(c2)OCCO3)CC1	3.7%
CCCCC1=CC2=CC(=O)C(C)(OC(=O)CC)C(=O)C2=CN1CCCN(CC)CC (stereo unspecified)	0.8%
COc1cc2c(cc1OC)-c1cc(=Nc3c(C)cc(C)cc3C)n(C)c(=O)n1CC2	0.0%&-13.6%
CCC(=O)Nc1ccc(C(=O)N/N=C/c2cccnc2)cc1	-27.6%
O=C(COC(=O)c1cc(=O)c2ccccc2o1)Nc1ccc2ccccc2c1	-5.1%
CC1=CCC2C(=O)N(CCc3c[nH]c4ccccc34)C(=O)C2C1 (stereo unspecified)	-15.8%
CC(C)C(NS(=O)(=O)c1ccc2c(c1)OCCO2)C(=O)NCCc1ccccn1 (stereo unspecified)	-5.6%
COC(=O)c1ccc2c(=O)n(CCCCCC(=O)O)c(=O)[nH]c2c1	u
O=C(CCN1C(=O)c2cccnc2C1=O)NC1CCCCCC1	-8.4%
Cn1nnc2cc(NC(=O)NCc3ccc4c(c3)OCO4)ccc21	u
O=C(Nc1cccc(C(F)(F)F)c1)N(Cc1ccc(Cl)cc1)CC(O)C(F)(F)F (stereo unspecified)	-15.6%
CS(=O)(=O)N1CCc2cc(-c3csc(NC(=O)Cc4ccccc4)n3)ccc21	-4.1%
CCSc1nnc(NC(=O)c2ccco2)s1	-3.9%
S=C(c1nc2ccccc2[nH]1)N1CCOCC1	u
C=CCN1CC2CC3(COc4cc(C)cc(C)c4)C=CC2(O3)C1=O (stereo unspecified)	-4.2%
COc1cc(Cl)cc(/C=C/c2ccc3ccccc3n2)c1OC(C)=O	u
Cc1ccc(C(=N)c2ccccc2Cc2cccc3ccccc23)c2ccccc12	0.7%
CCOC(=O)c1nc(N)sc1C(=O)OCC	-11.5%
COCCn1c(SCC(=O)N2CCCc3ccccc32)nc2ccccc2c1=O	-6.9%
CC1=C(C(=O)Nc2ccccn2)C(c2ccccc2)n2ncnc2N1 (stereo unspecified)	-28.3%
CSc1nc2c(c(=O)[nH]c(=O)n2C)n1C/C=C(\C)Cl	u
O=C(Nc1cccc(-c2nc3ncccc3o2)c1)c1sc2ccccc2c1Cl	-21.9%
Cc1cc(=O)oc(C)c1C(=O)NCCNC(=O)c1c(C)cc(=O)oc1C	-4.0%
COc1ccc(/C(C)=N/NC(=O)c2cc(-c3cccnc3)nc3ccccc23)cc1	-13.3%
O=c1c2ccccc2nc(-c2ccoc2)n1CCc1ccccc1	-9.3%
O=S1(=O)C=C(Oc2ccc(F)cc2)c2ccccc21	-15.4%
COc1cc(C(=O)COC(=O)Cc2cnc3sccn23)cc(OC)c1OC	-11.1%
Cc1noc(C)c1COC(=O)c1cc2c(C)nn(-c3ccc(F)cc3)c2s1	-11.4%
COc1ccccc1NS(=O)(=O)c1cc(NC(=O)c2cc3ccccc3oc2=O)ccc1C	-21.9%
C[C@@H](C(=O)N[C@@H](CO)Cc1ccccc1)[C@H]1C[C@]1(C)[C@H](NC(=O)OCc1ccccc1)c1ccccc1	-7.0%
Cc1ccccc1NC(=O)NCCCN1CCCC1	-15.5%
CCOC(=O)c1sc2nc(CC(=O)OC)nc(N3CCN(c4ccccn4)CC3)c2c1C	u
O=C(NNC(=O)C1C2CCC(C2)C1C(=O)O)c1ccc(Br)o1 (stereo unspecified)	0.9%
COc1ccc(CCNC(=O)CSc2nc(N)c3c(C)c(C)oc3n2)cc1OC	-9.8%
COc1ccc(/C=C/C2=NC(=C\N(C)C)/C(=O)O2)cc1	u
O=C(NC1CCCCC1)C1CCN(c2nccs2)CC1	-10.1%
O=C(Nc1cccc(C(F)(F)F)c1)c1ccc2nc(N3C(=O)CCC3=O)sc2c1	u
O=C(c1ccccc1)c1nnc(-c2ccncc2)o1	-17.3%
Cc1cc(C)n2nc(-c3sccc3-n3c(C)ccc3C)cc2n1	-20.9%
COc1ccc2[nH]c(=O)c(CN(C(=O)c3ccncc3)C(C)(C)C)cc2c1	-17.7%
COc1ccc2nc(NC3=NC(c4ccccc4)CC(=O)N3)nc(C)c2c1 (stereo unspecified)	-28.2%
CCOC(=O)c1c(NC(=O)c2nn(CC)cc2Br)c(C#N)cn1-c1ccccc1	-24.7%
Cc1ccc(NCC(=O)Nc2cccc(S(=O)(=O)N(C)C)c2)c(Cl)c1	-2.8%
O=c1ccc(S(=O)(=O)N2CCC(Cc3ccccc3)CC2)c[nH]1	-1.6%
CCN=C1SC(CC(=O)NC(C)C)C(=O)N1CC (stereo unspecified)	-0.1%
O=C(Nc1ccccc1Cl)c1cccc(COc2cc(Cl)ccc2Cl)c1	u
Fc1ccc(-c2nnc(NC3=NCCCCC3)o2)cc1	-5.6%
CN(Cc1cccs1)C(=O)COc1cccc(-n2cnnn2)c1	-4.1%
COC(=O)c1cccc(NC(=O)CSc2nnnn2C)c1	-9.4%
C/C(=N\NC(=O)c1csc(C)c1C)c1ccc(C)s1	14.1µM*
O=C(CCl)Nc1ccc(Oc2cnc3ccccc3n2)cc1	-16.0%
CN1CCN(C(=O)c2cccc(COc3cc(Cl)ccc3Cl)c2)CC1	-7.2%
Cc1ccc(OCCSCc2nc3ccccc3[nH]2)cc1	-9.0%
Cc1nnc(SCCn2c(N(C)Cc3ccccc3)nc3c2c(=O)[nH]c(=O)n3C)s1	-6.3%
Cc1cc(NC(=O)CCc2ccc(C)o2)no1	-5.2%

Given as labelled records: part of the list above
COc1ccc2[nH]c(=O)c(CN(C(=O)c3ccncc3)C(C)(C)C)cc2c1
  HPGD block: -17.7%
COc1ccc2nc(NC3=NC(c4ccccc4)CC(=O)N3)nc(C)c2c1 (stereo unspecified)
  HPGD block: -28.2%
CCOC(=O)c1c(NC(=O)c2nn(CC)cc2Br)c(C#N)cn1-c1ccccc1
  HPGD block: -24.7%
Cc1ccc(NCC(=O)Nc2cccc(S(=O)(=O)N(C)C)c2)c(Cl)c1
  HPGD block: -2.8%

Looked up one by one from the entries so far, 2 records:
SMILES	HPGD block
O=C(Nc1cccc(C(F)(F)F)c1)c1ccc2nc(N3C(=O)CCC3=O)sc2c1	u
CN(Cc1cccs1)C(=O)COc1cccc(-n2cnnn2)c1	-4.1%

New compounds follow
SMILES	HPGD block
O=C(NCc1ccccc1F)C1CCCN(C(=O)NC2CCCCC2)C1 (stereo unspecified)	-11.8%
O=c1[nH]c(=O)n([C@H]2C[C@H](O)[C@@H](CO)O2)cc1Br	2.0%&8.1%&-7.1%
CN(C)c1ccc(O)c2c1CC1CC3[C@@H](N(C)C)C(=O)C(C(N)=O)=C(O)[C@]3(O)C(=O)C1=C2O (stereo partly specified)	-12.3%
Cc1cc(C(=O)N/N=C2\CC(=O)CC(C)(C)C2)c(C)n1-c1ccccc1	-21.6%
Cc1cc(C)cc(N2CCCn3c2nc2c3c(=O)n(CC(=O)OCc3ccccc3)c(=O)n2C)c1	u
Cc1ccc(C2Nc3ccccc3C(=O)N2Cc2ccco2)cc1 (stereo unspecified)	u
C=CCc1cccc2cc(C(=O)N(C)C)c(=O)oc12	-22.8%
CCOc1cc(C(=O)O/N=C(\N)c2ccc([N+](=O)[O-])cc2)cc(OCC)c1OCC	-0.7%
O=C(c1ccccc1)c1cccc(NC(=O)c2ccco2)c1	-20.7%
COc1ccccc1Nc1nc(N)nc(CSc2nncn2C)n1	-9.6%
CC(C)[C@H](NC(=O)c1ccccc1)C(=O)OCc1nc2scc(-c3ccccc3)c2c(=O)[nH]1	-13.8%
CCCC(=O)C1=C(O)C(C(=O)OC)C(C)(C)CC1=Nc1ccc(N)cc1 (stereo unspecified)	-4.3%
Nc1ccccc1Nc1cc(-c2ccccc2)nn1-c1cccc(Cl)c1	-7.8%
O=C(CSc1nc2cc(Cl)ccc2s1)c1ccco1	22.4µM*
COc1ccc2ccc(Oc3ncccn3)cc2c1	-15.3%
O=C(NCc1ccc(F)cc1)c1c(O)c2cccc3c2n(c1=O)CCC3	-21.9%
CC1CCCCN1S(=O)(=O)c1cccc2cccnc12 (stereo unspecified)	-10.7%
Clc1ccc(COn2c(-c3ccc(Cl)cc3)nc3ccccc32)cc1	32.0%[activator]
CCOC(=O)c1sc(NC(=O)CCN2CCOCC2)c(C(=O)OCC)c1C	-7.0%
O=C(/C=C/c1ccccc1)NC1CCSC1=O (stereo unspecified)	-1.5%
CS(=O)(=O)Nn1cnc2ccccc2c1=O	4.3%
COc1ccc2nc(C)cc(N3CCOCC3)c2c1	-15.4%
CC(=NCCN1CCOCC1)C1=C(O)c2ccccc2C1=O	-7.4%
CC1CCc2c(sc3ncnc(NCCCOC(C)C)c23)C1 (stereo unspecified)	-17.3%
O=S1(=O)CCN(c2ccccc2CC(c2c[nH]c3ccccc23)c2c[nH]c3ccccc23)CC1	-11.0%
C[C@@H](CCC[C@@H]1SC[C@H]2NC(=O)N[C@H]12)C(=O)O	-2.0%
Nc1c(N=Nc2ccccc2F)c(=O)[nH]n1-c1ccccc1	-0.7%
CCOC(=O)C1CCN(S(=O)(=O)Cc2ccc(Cl)cc2)CC1	-3.6%
CCCc1cc(C(=O)Nc2nnc(C)s2)cs1	-7.5%
Cc1ccc(NC(=O)Cn2c(O)c(N=NS(=O)(=O)c3ccc(C)cc3)c3ccccc32)cc1	-6.2%
CCNC(=O)c1sc(=S)n(CC)c1N	17.8µM*
N#CCCCSc1nnnn1-c1cccc(Cl)c1	-15.5%
O=C(O)Cc1csc(Nc2cccc(Cl)c2)n1	-4.8%
CC1CN(C(=O)c2cccc(S(=O)(=O)N3CCOCC3)c2)CC(C)O1 (stereo unspecified)	-12.8%
COc1cccc(OCc2nnc(SC)n2C)c1	-19.2%
CC(c1ccccn1)N(CCN(C)C)C(=S)Nc1cccc(F)c1 (stereo unspecified)	-4.0%
CCOC(=O)C1=C(C)NC(=O)C1CC(=O)O (stereo unspecified)	-4.6%
CN(CC(O)COCc1ccc2c(c1)OCO2)C1CCCCC1 (stereo unspecified)	0.9%
O=C(NCCCN1CCN(c2ccccc2F)CC1)C1CCC(=O)N1C1CCCC1 (stereo unspecified)	-6.3%
Cc1noc(C)c1S(=O)(=O)N1CCC(C(=O)NC2CCN(Cc3ccccc3)CC2)CC1	-9.4%
CCOC(=O)N(NC(=O)C(O)(CC(C)C)CC(C)C)c1ccccc1	-8.9%
Cc1cc(Cl)c(S(=O)(=O)Nc2ccccn2)cc1OCC(N)=O	-10.9%
COC(=O)c1ccc(OS(=O)(=O)c2ccc(NC(C)=O)cc2)cc1	-6.6%
CCCCN1C(=O)Nc2ccccc2S1=O (stereo unspecified)	15.8µM*
CCN(c1ccc(NC(=O)COC(=O)CCC(=O)c2ccc(F)cc2)cc1)C(C)C	-17.8%
O=C(Oc1cc2oc(=O)c3c(c2cc1Cl)CCCC3)c1cccs1	u
COc1cccc(/C=c2\s/c(=C/C(=O)c3ccc(C)cc3)[nH]c2=O)c1OC	-12.8%

Compound activity from PubChem.
